Screening data as filed in PubChem BioAssay.
KCNQ2 block: KCNQ2 potassium channel inhibitors, primary screen, cell-based, CHO-K1, FluxOR thallium flux, B-score (AID 2156) | O88943 | 20 min; stronger effect = lower value; only compounds with negative scores are shown here; some inactives read as strong as hits | B-score at 10 µM | 1.1% of 310,000 active;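 active = fluorescence ratio B-score at most minus 3 library SDs, with starting brightness B-score within 2 library SDs, cut at about -5.5 in these data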
Target sequence (O88943 whole entry, looked up): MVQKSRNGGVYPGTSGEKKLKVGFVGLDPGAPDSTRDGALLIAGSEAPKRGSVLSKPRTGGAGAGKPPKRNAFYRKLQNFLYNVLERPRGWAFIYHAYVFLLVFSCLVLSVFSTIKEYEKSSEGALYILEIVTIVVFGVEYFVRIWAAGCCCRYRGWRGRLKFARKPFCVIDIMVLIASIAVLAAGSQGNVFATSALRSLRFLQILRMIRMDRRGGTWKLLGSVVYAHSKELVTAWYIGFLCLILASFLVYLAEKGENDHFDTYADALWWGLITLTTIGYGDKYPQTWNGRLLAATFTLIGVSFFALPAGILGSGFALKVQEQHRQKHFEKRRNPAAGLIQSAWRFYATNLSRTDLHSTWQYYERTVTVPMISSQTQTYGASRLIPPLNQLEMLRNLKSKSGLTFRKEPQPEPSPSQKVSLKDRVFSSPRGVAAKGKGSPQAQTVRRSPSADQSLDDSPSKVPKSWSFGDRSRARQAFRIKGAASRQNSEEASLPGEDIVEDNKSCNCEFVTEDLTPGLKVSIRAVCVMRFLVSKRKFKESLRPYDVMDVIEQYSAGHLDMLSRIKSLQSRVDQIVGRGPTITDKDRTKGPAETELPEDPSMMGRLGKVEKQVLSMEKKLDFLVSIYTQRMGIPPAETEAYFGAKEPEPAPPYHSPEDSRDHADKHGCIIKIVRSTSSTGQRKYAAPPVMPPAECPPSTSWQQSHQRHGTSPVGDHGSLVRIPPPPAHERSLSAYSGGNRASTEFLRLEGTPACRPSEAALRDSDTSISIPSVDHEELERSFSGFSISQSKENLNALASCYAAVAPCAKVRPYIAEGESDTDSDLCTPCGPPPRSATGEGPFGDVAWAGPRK
KCNQ2 block baseline: second read-out of KCNQ2 block, no call of its own (marks repeat the call); B-score; measured here: initial fluorescence intensity artifact check;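 brightness before thallium and not channel activity; 0 = typical well and far values either way flag optical interference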
An asterisk follows results filed as active; i = inactive. These rows are one share of the data; count on the stated rates, not on these rows.

compound	KCNQ2 block	KCNQ2 block baseline
Cc1ccc(NC(=O)c2sc3ncn(CC(=O)N4CCN(c5ccccn5)CC4)c(=O)c3c2C)cc1Cl	i	-0.96
CCC(C(=O)OCC(=O)Nc1ccc(SC(F)F)cc1)c1ccccc1 (stereo not drawn)	i	-0.28
CC(Cc1ccccn1)NC(=O)c1ccc(OC2CCN(CCc3ccccc3)CC2)cc1 (stereo not drawn)	i	-2.15
CN(NC(=O)c1ccccc1F)c1ncccc1[N+](=O)[O-]	i	0.61
CCC1CCc2c(sc(NC(=O)C3c4ccccc4Oc4ccccc43)c2C(N)=O)C1 (stereo not drawn)	i	-1.99
CN(Cc1ccccc1)C(=O)COc1ccccc1	i	1.74
COc1cc(OC)cc(C(=O)N[C@H](C(=O)OCC(=O)Nc2ccc(C(N)=O)cc2)C(C)C)c1	i	0.32
Cc1nc(N/N=C\c2ccc3c(c2)OCO3)sc1C	i	0.65
CCN1C(=O)/C(=C/c2cccs2)S/C1=N\S(=O)(=O)c1ccc(C)cc1	i	0.07
O=C(CSc1nnc2ccc(-c3cccnc3)nn12)Nc1cccc(F)c1	i	-0.54
O=C(N/N=C/c1ccccc1C(F)(F)F)c1ccc(O)cc1	i	1.41
Cc1ccc(CC(=O)N2CCC(c3nc4c(nnn4Cc4ccccc4)c(=O)[nH]3)CC2)cc1	i	0.39
CC1CCc2cc(F)ccc2N1C(=O)C12CCC(C)(C(=O)O1)C2(C)C (stereo not drawn)	i	1.01
Cc1ccc(-n2ncc(Cl)c2C(=O)NC2CC2)cc1	i	-0.64
CCC(C)(C)NC(=O)C(c1ccccc1)N(Cc1cccnc1)C(=O)c1csnn1 (stereo not drawn)	i	0.16
O=C(c1ccco1)N1CCN(c2ncccn2)CC1	i	-0.12
CCCn1cc(S(=O)(=O)CC(=O)Nc2ccc(OC)cc2OC)c2ccccc21	i	0.29
CCCCN(C)Cc1c(C)[nH]c2ccccc2c1=O	i	0.79
Cc1cc(C)c2sc(N(CCCN(C)C)C(=O)c3ccc(S(=O)(=O)N4CCc5ccccc5C4)cc3)nc2c1	i	21.6
CCCCCCCC(=O)Nc1cc(C(=O)NCCC)ccc1N1CCC2(CC1)CC(c1ccccc1)=NO2	-5.98*	1.34*
CCOCCN1CCN(C(=O)CN2CCCC2=O)CC1	i	0.17
O=C(Nc1ccc(F)cc1Cl)C1=COCCO1	i	-0.46
Cc1ccc(NC(=S)N2CCCC(c3ccccc3)=N2)cc1	i	1.65
Cc1ccccc1C(=O)Nc1nnc(S(=O)(=O)N(C)Cc2ccco2)s1	i	1.47
O=C(NC1CCCC1)c1ccc(CSCc2ccccc2F)o1	i	1.36
Nc1nc(Cl)c(C=O)c(N2CCCCC2)n1	i	-1.84
COc1cc(C2C(C#N)=C(N)Oc3cc(O)ccc32)cc2c1OCO2 (stereo not drawn)	i	1.86
Cc1cccc(C)c1OCc1cc(C(=O)N2CCC(C3CCCCC3)C2)no1 (stereo not drawn)	i	0.02
Cc1ccc(NC(=O)CN2CCN(Cc3ccccc3)CC2)c(Br)c1	i	-0.26
NS(=O)(=O)c1ccc(NC(=S)NCc2ccc(Cl)cc2)cc1	i	-0.33
CSC(=Nc1ccc(Cl)cc1)N[n+]1ccccc1	i	1.58
Cc1ccc(NC(=O)CSc2nc3ccccc3c(=O)n2CCCC(=O)NCCCN2CCOCC2)cc1C	i	0.67
CN1CCNC(=O)C1CC(=O)NCCC1=CCCCC1 (stereo not drawn)	i	1.48
COc1ccc(NC(=O)CC23CC4CC(C2)CC(n2nnc(C)n2)(C4)C3)cc1	i	0.37
CCc1cccc(NC(=O)C2CCCN(c3cnccn3)C2)c1 (stereo not drawn)	i	0.29
O=C1CC(SCCc2nc3ccccc3[nH]2)C(=O)N1c1ccc(F)cc1 (stereo not drawn)	i	2.23
Cc1ccc(C(=O)NCCC2=CCCCC2)cc1S(=O)(=O)N1CCOCC1	i	-0.33
Cc1ccc(NC(=O)C2C3C=CC(O3)C2C(=O)O)c(C)c1 (stereo not drawn)	i	0.05
NS(=O)(=O)c1ccc(N=Nc2c[nH]c(=O)c(O)c2)cc1	i	1.61
CCOc1cccc2cc(C(=O)NCc3ccccc3Cl)c(=O)oc12	i	0.55
C=CCn1c(SCC(=O)NC2CC2)nnc1C1CC1	i	0.86
O=C(Nc1cc(Sc2nc3ccccc3s2)cc([N+](=O)[O-])c1)c1ccccc1	i	0.26
COc1ccc(OC)c(CNC(=O)CCCn2ccc3cc(S(=O)(=O)N4CCCC4)ccc32)c1	i	-0.72
Cc1oc(-c2ccccc2)nc1CS(=O)CC(=O)O (stereo not drawn)	i	-0.29
CCOC(=O)c1ccccc1NC(=O)CSc1nc2ccccc2o1	i	0.08
Cc1cnc(CN(C)C(=O)CC2C(=O)NCCN2CCCc2ccccc2)[nH]1 (stereo not drawn)	i	0.88
Cc1cc(O)ccc1Nc1nc(-c2cccs2)cs1	i	-0.62
Cc1ccn2c(C(=O)N/N=C/c3ccc(Cl)cc3)c(C)nc2c1	i	-1.64
COc1ccc2c(c1)CCC/C2=N/OC(=O)c1ccccc1OC	i	0.01
Cc1ccc(OCC(=O)NN=C2c3ccccc3-c3ccccc32)cc1	i	-0.17
Cc1ccc(OCCNC(=O)c2ccccc2O)cc1	i	1.05
Cc1cc(N2CCCC(C(=O)Nc3ccc4c(c3)CCC4)C2)n2ncnc2n1 (stereo not drawn)	i	1.55
CC(C)(C)c1cc(NC(=O)CSc2nnc(N)s2)n(-c2ccccc2)n1	i	1.99
CCc1ccccc1NC(=O)c1cc(-c2ccc3c(c2)OCO3)on1	i	0.03
CN1N=C(/C=C/c2ccccc2)CCC1=O	i	-0.72
CN(CCC1CCOCC1)Cc1cn[nH]c1-c1ccc(-c2ccccc2)cc1	i	0.02
COc1ccc(NC(=O)C(F)(F)F)cc1OC	i	0.03
O=c1c2c3c(sc2nc(NCCO)n1CCc1ccccc1)CCCCC3	i	0.75
CCOc1ccc(NC(=O)COC(=O)CCS(=O)(=O)c2ccc(C)cc2)cc1	i	-0.75
O=C(c1cc(C2CC2)nc2ccc(Br)cc12)N1N=C(C(F)F)CC1(O)C(F)F (stereo not drawn)	i	-2.24

The listing continues.
compound	KCNQ2 block	KCNQ2 block baseline
COc1ccc(-c2cc(C(F)(F)F)c(C#N)c(SCC(=O)Nc3ccccc3C#N)n2)cc1	i	0.73
Cc1noc(C(=O)NCC2CCCO2)c1Cl (stereo not drawn)	i	1.47
O=C(/C=C/c1cccc([N+](=O)[O-])c1)OC1CCCCC1=O (stereo not drawn)	i	2.2
COc1ccc(C(C[N+](=O)[O-])C2(c3ccc(OC)c(OC)c3)C(=O)c3ccccc3C2=O)cc1 (stereo not drawn)	i	0.86
CCCNC(=O)Cc1c(O)c2ccccc2[nH]c1=O	i	0.41
Cc1ccc(N2C(=O)CCC2=O)c(C)c1	i	0.62
Cc1ccc2c(c1)c1ncn(CCC3=CCCCC3)c(=O)c1n2C	i	0.05
CCc1nc2sc3c(Cl)ncnc3c2c2c1CCCC2	i	0.58
CC(C)NC(=O)NC(=O)CSc1ncccn1	i	-0.37
CC(C)N1C(=O)CCC1C(=O)NCc1ccc(F)cc1Cl (stereo not drawn)	i	-2.76
CC(C)C(c1nnnn1Cc1ccco1)N1CCN(c2nc3ccccc3s2)CC1 (stereo not drawn)	i	0.56
CCOc1ccc(Nc2nc(N3CCCC3)nc(N3CCN(c4ccc(OC)cc4)CC3)n2)cc1	i	-1.67
CCOC(=O)N1CCN(S(=O)(=O)c2cccc3cccnc23)CC1	i	3.38
Cn1c(SCC(=O)c2ccccc2)nnc1-c1ccncc1	i	1.96
O=C(COc1ccccc1[N+](=O)[O-])N/N=C/c1ccc[nH]1	i	0.37
Cn1cc(CN2CCC(Oc3ccc(C(=O)N4CCCC4)cc3)CC2)cn1	i	0.06
CCOc1ccc(/C=C2/Sc3ccc(C(=O)N4CCOCC4)cc3N(C)C2=O)cc1OC	i	-0.01
Cc1ccc(-n2c(C)cc(/C=N/Nc3ccc([N+](=O)[O-])cn3)c2C)c(C)c1	i	-0.29
CCCCn1c(N)c(N(CC(C)C)C(=O)CCNC(=O)c2ccc(Br)cc2)c(=O)[nH]c1=O	i	0.33
COc1ccc(/C=C(/NC(=O)/C=C/c2ccccc2)C(=O)N2CCOCC2)cc1	i	-1.07
COc1cc2c(cc1OC)C(c1ccccc1)N(C(=O)c1ccccc1F)CC2 (stereo not drawn)	i	0.02
CCN(c1cccc(C)c1)S(=O)(=O)c1ccc2[nH]c(=O)c(=O)[nH]c2c1	i	0.39
CC1(C)Cc2nc3sc4c(=O)n(CC(=O)NCc5ccco5)cnc4c3cc2CO1	i	-0.77
Cc1[nH]c(C)c2c(=O)n(Cc3ccc(Cl)cc3)ncc12	i	0.67

Whole records, quoted from the list. Order of screens: KCNQ2 block	KCNQ2 block baseline
Cc1ccc(-n2c(C)cc(/C=N/Nc3ccc([N+](=O)[O-])cn3)c2C)c(C)c1 as listed: i	-0.29
Cc1[nH]c(C)c2c(=O)n(Cc3ccc(Cl)cc3)ncc12 as listed: i	0.67
CCOc1ccc(/C=C2/Sc3ccc(C(=O)N4CCOCC4)cc3N(C)C2=O)cc1OC as listed: i	-0.01
CCCCn1c(N)c(N(CC(C)C)C(=O)CCNC(=O)c2ccc(Br)cc2)c(=O)[nH]c1=O as listed: i	0.33
O=C(COc1ccccc1[N+](=O)[O-])N/N=C/c1ccc[nH]1 as listed: i	0.37

(list continues)
compound	KCNQ2 block	KCNQ2 block baseline
O=C(c1ccco1)c1cn(CC(=O)N2CCCCCC2)c2ccccc12	i	-0.46
O=C(O)C1CC(O)CN1S(=O)(=O)c1cccs1 (stereo not drawn)	i	-0.01
COc1ccc(C)cc1N(C(=O)c1snc(C(N)=O)c1N)C(C(=O)NC1CCCCC1)c1ccc(C)o1 (stereo not drawn)	i	-0.29
Cc1cc(N2CCOCC2)nc2ccc(NC(=S)N3CCN(c4ccccc4)CC3)cc12	i	-2.33
Cc1ccc(N2C(=O)Cc3ccccc3C2=O)cc1	i	0.64
CCc1c(C#N)c(SCc2c(C)noc2C)nc2c1C(=O)CC(C)(C)C2	i	-0.68
COc1ccc(CC(=O)NCCS(=O)(=O)N2CCN(c3ccc(F)cc3)CC2)cc1OC	i	0.13
O=C(NC1CCc2ccccc21)c1cc(COc2cncc(Cl)c2)on1 (stereo not drawn)	i	-0.43
CCn1c(CNC(=O)c2ccc(OC)c(OC)c2)nnc1SCC(=O)c1ccc(OC)cc1	i	0.35
CCCC1CCC(=NNS(=O)(=O)c2ccc(C)c([N+](=O)[O-])c2)CC1 (stereo not drawn)	i	-1.19
O=C(COC(=O)Cn1cnc2ccccc21)Nc1ccc2c(c1)OCCO2	i	0.71
Cc1cc(C)c(S(=O)(=O)c2ccccc2)c(Cl)n1	i	0.08

Quoted from the listing.
COc1ccc(CC(=O)NCCS(=O)(=O)N2CCN(c3ccc(F)cc3)CC2)cc1OC in KCNQ2 block baseline reads 0.13
CCn1c(CNC(=O)c2ccc(OC)c(OC)c2)nnc1SCC(=O)c1ccc(OC)cc1 in KCNQ2 block baseline reads 0.35
Cc1ccc(N2C(=O)Cc3ccccc3C2=O)cc1 in KCNQ2 block baseline reads 0.64
CCCC1CCC(=NNS(=O)(=O)c2ccc(C)c([N+](=O)[O-])c2)CC1 (stereo not drawn) in KCNQ2 block baseline reads -1.19
COc1ccc(C)cc1N(C(=O)c1snc(C(N)=O)c1N)C(C(=O)NC1CCCCC1)c1ccc(C)o1 (stereo not drawn) in KCNQ2 block baseline reads -0.29

Continued:
compound	KCNQ2 block	KCNQ2 block baseline
Nc1nn(-c2ccccc2)c(N)c1N=Nc1cccc(F)c1	i	-0.68
O=C(C1CCCN(S(=O)(=O)c2cc(Cl)ccc2Cl)C1)N1CCCC1 (stereo not drawn)	i	-0.58
Cc1cccc(NC(=O)c2sc(-c3ccccc3)nc2-c2ccc([N+](=O)[O-])cc2)c1	i	0.1
COc1ccc(-c2ccc(CCC(=O)O)n2-c2ccccc2OC)cc1	i	1.1
CCC(C(=O)NCc1cccnc1)n1nc(C)c2sc3ccccc3c2c1=O (stereo not drawn)	i	2.77
CC(C)(C)SCCNC(=O)CN1C(=O)c2cccc3cccc1c23	i	0.73
Cc1ccc(S(=O)(=O)Nc2ccc(N=Nc3ccc(O)cc3)cc2)cc1	-8.69*	-3.02*
CC12CC(O)C3c4ccc(O)cc4CCC3C1CC/C2=N\O (stereo not drawn)	i	0.74
COc1ccc(-c2oc3ncnc(N)c3c2-c2ccccc2)cc1	i	2.24
C/C(CCc1oc2ccc(Cl)cc2c1-c1ccc(C)o1)=N\O	i	2.17
CN(C)/C=N/c1ncc(-c2ncc(C(F)(F)F)cc2Cl)cn1	i	1.8
Cc1ccccc1NC(=O)CSc1nnc(Cc2ccccc2)o1	i	0.02
COC(=O)CCn1[nH]c(=O)c2ccccc2c1=O	i	0.14
CCOC(=O)C1CCCN(C(=O)c2cncc(Br)c2)C1 (stereo not drawn)	i	0.69
O=C(Nc1ccc2oc(=O)ccc2c1)c1ccc2ccccc2c1	i	2.15
CCOC(=O)C1=C(COC(=O)[C@@H]2CCCN2S(=O)(=O)c2ccc(C)cc2)NC(=O)NC1C (stereo partly drawn)	i	-0.06
CC(=O)c1cc(CN2CCN(Cc3ccc(C)cc3)C(CCO)C2)cs1 (stereo not drawn)	i	1.94
COC(=O)c1cccc(NC(=O)CSc2nnc(C)n2C)c1	i	0.11
O=C(c1ccccc1)c1ccccc1NC(=O)C1CCCN1Cc1ccccc1 (stereo not drawn)	i	0.03
O=C(O)c1ccc2oc(=O)c(S(=O)(=O)c3ccc(F)cc3)cc2c1	i	0.14
